From PubChem
PNC inhibitor: blocks assembly of the perinucleolar compartment | actives 3.1% (n = 140,000) | PC3M PTB-GFP, PNC prevalence imaging, 16 h; active compounds read low | AID 2417 | activity change (PNC), negative = inhibition, % at 10 µM;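 active = readout at or below -70, meaning at least 70% loss of cells showing the perinucleolar compartment, a nuclear body marking cancer cells; inconclusive = readout between -30 and a set limit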;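 also: plate controls were DMSO wells for no effect and camptothecin positive control wells for full effect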
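Read-out is percentage of cells bearing a perinucleolar compartment, from automated 20x imaging of fixed, Hoechst-stained PC3M PTB-GFP cells. Cells were seeded 4 h, then exposed 16 h to compound (23 nl of library stock) in duplicate plates.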
12-hLO inh: blocks human 12-lipoxygenase activity; actives 0.12% (n = 150,000); Potency, µM (titrated, usually from 57.1 µM), for inactives: top-dose activity change, negative = inhibition, most hits filed as inhibitors; purified 12-hLO, xylenol orange hydroperoxide absorbance; P18054; active = well fitted inhibition curve with a large enough effect; inconclusive = small, poorly fitted or top-dose-only effect; also: potency is read from the fitted curve at half-maximal effect; nearly all actives have a fitted effect of over 55% in size; many of its hits are not listed in these tables
Target sequence (P18054 whole entry, looked up): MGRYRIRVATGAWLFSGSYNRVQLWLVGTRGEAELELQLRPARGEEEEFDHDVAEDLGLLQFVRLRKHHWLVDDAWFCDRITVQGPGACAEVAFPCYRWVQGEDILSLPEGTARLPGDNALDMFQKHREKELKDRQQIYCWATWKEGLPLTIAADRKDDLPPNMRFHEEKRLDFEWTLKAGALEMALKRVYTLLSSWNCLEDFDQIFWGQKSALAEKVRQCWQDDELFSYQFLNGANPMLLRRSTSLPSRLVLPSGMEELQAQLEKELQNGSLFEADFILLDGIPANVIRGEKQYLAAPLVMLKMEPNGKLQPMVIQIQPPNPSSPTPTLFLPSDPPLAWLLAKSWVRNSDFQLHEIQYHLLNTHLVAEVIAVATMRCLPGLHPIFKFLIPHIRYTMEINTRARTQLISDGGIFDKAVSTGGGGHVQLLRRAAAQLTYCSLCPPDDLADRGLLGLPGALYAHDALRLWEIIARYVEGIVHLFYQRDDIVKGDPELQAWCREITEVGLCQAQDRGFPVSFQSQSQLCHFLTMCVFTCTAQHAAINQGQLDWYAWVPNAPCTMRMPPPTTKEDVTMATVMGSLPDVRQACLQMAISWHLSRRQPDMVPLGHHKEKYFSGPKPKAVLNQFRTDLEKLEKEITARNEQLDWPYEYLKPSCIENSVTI
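150 nM 12hLO, 25 mM Hepes pH 7.0 + 0.01% Triton X-100; cpd preinc 15 min RT; 40 uM arachidonic acid, 30 min RT; Fe-XO 30 min; A573/A405 ratio as read-out.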
IMPase cell inh: IMPase inhibition in cells. 120,000 tested, under 10 active. AID 901. P97697. CHO-M1 cells, IP1 accumulation, HTRF TR-FRET ratio. inhibition (IP1 accumulation), % at 46.1 µM; active = well fitted curve in the direction sought with a large enough effect in the signal ratio, not every such curve was filed as active; inconclusive = small, poorly fitted or top-dose-only effect, or a change in a side signal; inactive = no such curve, though single readings can be large or run the other way; the % refers to the signal ratio;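 also: cells stimulated with carbachol in lithium chloride buffer; plate controls were DMSO basal wells for no effect and reference inhibitor wells for full effect; higher means more IMPase inhibition seen as more IP1 and lower FRET ratio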
Target sequence (P97697 whole entry, looked up): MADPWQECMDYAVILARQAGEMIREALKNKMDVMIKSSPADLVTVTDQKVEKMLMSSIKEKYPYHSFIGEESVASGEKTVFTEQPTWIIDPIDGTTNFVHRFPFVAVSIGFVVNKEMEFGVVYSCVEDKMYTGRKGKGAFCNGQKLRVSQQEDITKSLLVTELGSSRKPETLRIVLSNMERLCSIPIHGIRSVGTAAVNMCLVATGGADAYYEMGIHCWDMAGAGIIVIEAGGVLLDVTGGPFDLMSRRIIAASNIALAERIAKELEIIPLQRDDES
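Cellular IMPase inhibition is scored as a rise in cytosolic IP1, detected by competitive TR-FRET between d2-labelled IP1 and a europium anti-IP1 antibody. M1-expressing CHO cells were stimulated with carbachol for 30 min at 37C, with lithium (50 mM LiCl) present in the buffer.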
* hit, by the source's call; ? = inconclusive; nt = not tested or not shown; [ ] = dose if it differs, or a comment. Unless noted, % is scaled to controls: 0 for no effect and ±100 for the full control effect. Some of the compounds tested; count on the stated rates, not on these rows.

Molecule,PNC inhibitor,IMPase cell inh,12-hLO inh
Cc1cc(C(=O)N2CCC(Cc3ccccc3)CC2)ccc1[N+](=O)[O-],-7,11,-2%
COc1ccc(C(=O)N/N=C/C(C)c2ccccc2)cc1OC (stereo not drawn),-26,-5,-1%
Cc1cc(S(=O)(=O)NC2CCCC2)ccc1F,25,12,6%
COC(=O)c1c(NC(=O)Cc2cccs2)sc2c1CCC(C)C2 (stereo not drawn),?,7,-12%
COc1cc(SC)ccc1C(=O)Nc1ccc(S(=O)(=O)N2CCCC2)cc1,-1,7,2%
O=C(Cn1cnc2sc(-c3ccccc3)cc2c1=O)N1CCOCC1,-12,3,-1%
O=C(O)c1ccc(-n2nnnc2Oc2ccccc2C(=O)N2CCOCC2)cc1,-13,6,-2%
COC(=O)c1ccc(C2NC(=S)N(c3ccccc3)C(C)=C2C(=O)Nc2ccccc2OC)cc1 (stereo not drawn),-3,3,?
CCCN1C(=O)/C(=C/c2ccc(C)o2)SC1=Nc1ccc(OCC)cc1,?,2,-9%
O=C(CN1CCOCC1)Nc1c2c(nc3ccccc13)N(Cc1ccccc1)CC2,?,-6,-1%
O=C(c1ccc(Cn2c(=O)[nH]c3ccccc3c2=O)cc1)N1CCN(c2ccc(F)cc2)CC1,13,8,-10%
CC(=O)NC(Cc1ccccc1)C(=O)NC1CCN(C(=O)c2cnccn2)CC1 (stereo not drawn),?,-2,-10%

The listing continues:
Molecule,PNC inhibitor,IMPase cell inh,12-hLO inh
CCCC(=O)NC(=S)Nc1cccc(Cl)c1N1CCCCC1,6,5,?
Fc1ccc(-c2cc3nc(-c4ccccc4)cc(N4CCOCC4)n3n2)cc1,-8,-6,-2%
CC(=O)c1cnc(SCCN2C(=O)c3ccccc3C2=O)nc1C,?,2,-3%
NC1=NC2(CCN(Cc3ccccc3)CC2)n2c(nc3ccccc32)N1,-13,4,?
CCn1c(CNC(=O)COc2ccc(C(C)C)cc2)nnc1SCC(=O)Nc1ccccc1,-9,9,2%
CCC(=O)Nc1ccc(S(=O)(=O)Nc2cccc(C)c2)cc1OC,?,-9,-1%
COc1cccc(NC(=O)Nc2c(C)n(C)n(-c3ccccc3)c2=O)c1,-7,-3,-11%
O=C(O)c1ccc(NS(=O)(=O)c2ccc(Cl)cc2)cc1,-6,21,-3%
CC(C)SC1=NC(C)(C)C=C(/C=C/c2ccc(Cl)cc2Cl)N1,64,3,-20%
N#Cc1ccc(-c2cccnc2)nc1SCc1ccc(Cl)cc1Cl,-22,-5,4%
Cc1nn2c(-c3ccccc3)ccnc2c1-c1ccccc1,32,16,-4%
COc1ccc(NC(=O)C2(c3ccc(NC(=O)c4ccc(OC)c(OC)c4)cc3)CCCC2)cc1,22,-2,5%

(continued)
Molecule,PNC inhibitor,IMPase cell inh,12-hLO inh
CCC(=O)Nc1nc2ccccc2n1CCN(CC)CC,?,-1,0%
O=C(Cc1cccs1)Nc1ccon1,?,-1,0%
CN(Cc1ccccc1)S(=O)(=O)c1ccc(NC(=S)NC(=O)C2CCCC2)cc1,114,4,?
O=C(Cn1c(O)c(/C=C2\C=Nc3ccc(Br)cc32)sc1=O)N1CCCC1,39,-6,-4%
COc1ccc(N(CC(=O)Nc2ccc(S(=O)(=O)N3CCCCC3)cc2)S(C)(=O)=O)cc1OC,-9,-6,-3%
Cc1nc2cc(F)ccc2n1C1CCN(S(=O)(=O)c2ccccc2)CC1,-10,6,5%
COc1cc(C(=O)OC2CCCCC2=O)cc(OC)c1C (stereo not drawn),?,6,-4%
COc1ccc(Cl)cc1NC(=O)Cn1c(=O)n2nc(C)nc2c2ccccc21,?,-2,6%
Cc1ccc(S(=O)(=O)NCC(c2ccccc2)N2CCN(CCC#N)CC2)cc1 (stereo not drawn),?,3[1.84 µM],2%
CCOC(=O)N1CCC(NC(=O)C(Cc2ccccc2)NC(=O)c2ccco2)CC1 (stereo not drawn),21,9,-1%
C=CCn1c(=O)[nH]c2cc(C(=O)N3CCN(c4ccc(C(C)=O)cc4)CC3)ccc2c1=O,35,-3,-3%
FC(F)(F)c1cccc(NC(=S)Nc2cccc(Cl)c2)c1,39,0,-9%

Next section
Molecule,PNC inhibitor,IMPase cell inh,12-hLO inh
CC1(C)NC(=O)N(CNc2cc(Cl)ccc2Cl)C1=O,29,6,1%
COc1cc(/C=C\c2ccc(OC)cc2OC)cc(OC)c1,nt,-3,-7%
CC1=C(C(=O)Nc2cccnc2)C(c2ccncc2)n2nnnc2N1 (stereo not drawn),-8,0,-3%
O=S(=O)(c1ccc(Br)cc1)N1CCN(c2cc(-c3ccccc3)nc3ncnn23)CC1,-2,?,-18%
COc1ccc(Nc2ncccc2C(=O)Nc2ccccc2)cc1,-6,4,-13%
CCOc1cc(S(=O)(=O)NCCN2CCOCC2)c(C)cc1C,28,15,-2%
N#CC(c1ccccc1F)(c1ncc(C(F)(F)F)cc1Cl)N1CCOCC1 (stereo not drawn),35,-5,-3%
COc1cccc(-c2nc(-c3ccccc3)no2)c1,0,1,-3%
CCOc1ccc(N2C(=O)CC(N(O)c3ccccc3)C2=O)cc1 (stereo not drawn),?,-1,-17%
CCc1nc(-c2cc3ccc(C)cc3[nH]c2=O)no1,6,2,-1%
CCCCCn1c(=NC(C)=O)c(C#N)cc2c(=O)n3ccccc3nc21,?,3,-12%
Cc1cccc(Cn2c(=O)n(Cc3ccco3)c(=O)c3ccccc32)c1,?,4,-3%

Remaining list, next part.
Molecule,PNC inhibitor,IMPase cell inh,12-hLO inh
COc1cccc(NC(=O)COc2ncnc3sc(C)c(C)c23)c1,21,4,-2%
O=C(OCc1nc2ccccc2s1)c1cccs1,8,-5,-13%
Cc1cc(-c2cc(-c3ccc(Cl)cc3)nc(N)c2C#N)co1,10,-12,?
COc1ccc(/C=N/NC(=O)CSCC(=O)Nc2ccccc2)cc1OC,-15,-1,-27%
N#Cc1c(NC(=O)CSCC(=O)O)sc2c1CCCC2,23,3,-4%
COc1ccc(-c2n[nH]c(=S)o2)c(OC)c1,?,-19,-3%
COc1ccc(S(=O)(=O)N2CCN(C3CCCCCCC3)CC2)cc1,?,2,-8%
COc1ccc(S(=O)(=O)CCC(=O)NC2CCCCC2)cc1,36,0,-2%
CCCc1cc2c(=O)c(-c3ccccn3)c(C)oc2cc1O,-25,0,2%
COc1ccccc1C1/C(=C(/O)c2ccccc2)C(=O)C(=O)N1CC(C)O (stereo not drawn),2,-4,5%
O=C(N[C@@H](Cc1ccccc1)C(=O)O)c1cccnc1,10,7,-6%
O=C(CCc1ccc(S(=O)(=O)NC2CCCCC2)cc1)NCc1ccccc1,-23,0,5%

Next part.
Molecule,PNC inhibitor,IMPase cell inh,12-hLO inh
COc1ccccc1Oc1nnnn1-c1ccc(C(N)=O)cc1,0,-6,2%
CCSCCC(NC1=CC(=O)CC(C)(C)C1)C(=O)O (stereo not drawn),-23,1,0%
O=C1C2ON(c3ccc(Cl)cc3)C(c3ccco3)C2C(=O)N1c1ccccc1 (stereo not drawn),15,6,-10%
Cc1cccc(NC(=O)CCc2ccc(S(=O)(=O)NC3CCCCC3)cc2)c1,-20,1,-2%
O=C(NCC1COCCO1)C1CCN(S(=O)(=O)c2ccccc2)CC1 (stereo not drawn),?,4,-1%
Cc1ccc(-c2cc(C(=O)N3CCN(c4ncccn4)CC3)c3ccccc3n2)cc1,11,-15,-12%
COc1cc(C(=O)NC(=S)Nc2ccc(Cl)c(C(=O)O)c2)cc(OC)c1OC,27,2,?
COC(=O)c1nnn(CC(=O)Nc2cccc(OC)c2)c1C(=O)OC,35,0,8%
COC(=O)c1cc2ccsc2n1CC(=O)N(C)c1ccccc1,30,-1,-10%
CC(C)(O)C(=O)NN(C(=O)c1ccccc1)c1cccc(Br)c1,3,7,-5%
Cc1ccc2nsnc2c1NC(=O)c1ccc(-c2cc(Cl)ccc2Cl)o1,?,3,-18%
Cc1sc2nc(CN3CCCC3)nc(N3CCC(C(N)=O)CC3)c2c1C,26,1,0%

Ordered by number of heavy atoms (highest first): 3 of the compounds above.
Molecule,PNC inhibitor,IMPase cell inh,12-hLO inh
Cc1ccc2nsnc2c1NC(=O)c1ccc(-c2cc(Cl)ccc2Cl)o1,?,3,-18%
COC(=O)c1nnn(CC(=O)Nc2cccc(OC)c2)c1C(=O)OC,35,0,8%
COc1ccccc1Oc1nnnn1-c1ccc(C(N)=O)cc1,0,-6,2%

Additional compounds follow:
Molecule,PNC inhibitor,IMPase cell inh,12-hLO inh
COc1ccc(-c2cc3ccccc3oc2=O)cc1NC(=S)NC(=O)c1ccc2c(c1)OCCO2,39,-1,3%
COc1ccc(C2SCC(C(=O)NCc3ccc(F)cc3)N2C(C)=O)cc1 (stereo not drawn),6,-4,0%
Cn1c(=NC(=O)C2CCN(S(=O)(=O)c3cccs3)CC2)sc2ccccc21,14,11,-1%
CN=C1S/C(=C\c2ccc(Sc3ccc(Cl)cc3)o2)C(=O)N1C,23,-7,4%
Cc1ccc(NC(NC(=O)c2ccccn2)C(Cl)(Cl)Cl)cc1 (stereo not drawn),-7,1,-5%
Cc1ccc2occ(C3N[C@H](C(=O)O)CS3)c(=O)c2c1 (stereo partly drawn),-22,-1,-2%
FC(F)Sc1ccc(NC(=S)NCC2CCCCC2)cc1,4,11,-13%
Cc1ccc(C(=O)NC2CCCCCC2)cc1N1CCCC1=O,8,0,0%
Cc1ccc(C(=O)/C=C2\NCC(C)NC2=O)cc1 (stereo not drawn),-5,-22,1%
CC(=O)Nc1nc(C)c(Oc2ccccc2)c(=O)[nH]1,13,9,0%
Cc1ccc(C2CC(=O)NC3=C2C(=O)CCC3)cc1Br (stereo not drawn),52,-1,-5%
CC(C)=CCCC(C)CN1CCC(O)CC1 (stereo not drawn),-23,-11,1%

Continuation.
Molecule,PNC inhibitor,IMPase cell inh,12-hLO inh
O=C1CNCc2[nH]c3ccccc3c2N1c1ccccc1,8,-3,1%
NS(=O)(=O)c1cccnc1Nc1cccc(Cl)c1Cl,-6,14,-8%
C=CCn1c(CCNC(=O)c2cccs2)nnc1SCC(=O)Nc1cccc(Cl)c1C,?,8,2%
NC(=O)C(c1ccc(Cl)cc1)c1ccc(Sc2ccccc2)nn1 (stereo not drawn),-13,3,-4%
Cc1nc(N)nc(-c2ccccc2O)n1,30,-3,1%
Cc1c(C=O)c2ccccn2c1C(=O)c1ccccc1,-26,7,0%
CC1=C(C(=O)OC(C)C)C(c2cccc(F)c2)n2ncnc2N1 (stereo not drawn),0,-1,-1%
CCN(CC)c1nc2n(c(=O)n1)CCO2,27,?,1%
COc1ccc(S(=O)(=O)N(CCN2CCOCC2)Cc2cc(OC)ccc2OC)cc1,?,?,-5%
COc1cc2c(cc1OC)-c1cc(N3CCCc4ccccc43)nc(=O)n1CC2,-11,-9,-4%
NC(=O)C1CCN(Cc2nnnn2Cc2ccco2)CC1,-29,-8,0%
Cc1ccc(CNCc2cc3c(C(C)(C)C)nn(-c4ccccc4)c3[nH]c2=O)cc1,?,5,-9%

The list goes on:
Molecule,PNC inhibitor,IMPase cell inh,12-hLO inh
COC(=O)c1nnn(CC(=O)Nc2cccc(Cl)c2)c1C(=O)OC,27,-1,2%
N#CC1(c2ccc(NC(=O)c3ccccc3)cc2)CCCC1,?,9,5%
CSc1nnc2c(n1)[nH]c1c(C)cccc12,-11,-3,-7%
COc1ccc2cc(C#N)c(N3CCN(Cc4nnnn4CCC(C)C)CC3)nc2c1,-25,3,1%
CCOC(=O)c1cc(Br)c(=O)n2ccccc12,3,?,3%
Cc1ccc(CCN2CC(C(=O)NCCCN(C)Cc3ccccc3)CC2=O)cc1 (stereo not drawn),-6,4,-7%
Cc1cc(SCC(=O)N2CCC(c3noc4ccc(F)cc34)CC2)nc2ccccc12,-28,6,-1%
N#Cc1c(N)n(CCOC(=O)c2ccc(Cl)cc2)c2nc3ccccc3nc12,13,-17,-8%
CCCN(CCC)C(=S)NC(=O)c1ccc(Cl)cc1Cl,-2,?,-6%
Cc1ccc(C2=NNC(C(O)C(O)C(O)CO)S2)cc1 (stereo not drawn),44,-1,-8%
COCCCn1c(SCC(=O)N2CC(=O)Nc3ccccc32)nnc1-c1ccoc1C,-23,6,-4%
Cc1ccc(-c2ncccc2OC(=O)C23CC4CC(CC(C4)C2)C3)cc1,65,?,6%

Additional structures follow:
Molecule,PNC inhibitor,IMPase cell inh,12-hLO inh
Cc1cc(C(F)(F)F)nc(SCc2ccc(C(=O)O)o2)n1,?,-3,-4%
C=CCSc1nc(Oc2ccccc2)c2sccc2n1,-10,10,-2%
CC(NC(=O)Nc1ccccc1C(F)(F)F)C1CCCO1 (stereo not drawn),-7,-2,0%
CCOc1cc(NC(=S)Nc2ccccc2)c(OCC)cc1NC(=O)c1ccccc1,41,7,-16%
